Screening results (PubChem)
12-LOX inh – blocks human arachidonate 12S-lipoxygenase | purified 12hLO, xylenol orange hydroperoxide absorbance | actives 1.1% (n = 580,000) | Potency, µM (doses to about 108 µM), for inactives: top-dose activity change, negative = inhibition, actives largely listed as inhibitors | P18054 | AID 1671190; further: on the % scale 0 is the no-effect control and ±100 the full control effect
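Hydroperoxide product was detected by ferrous iron/xylenol orange as the 573 to 405 nm absorbance ratio. Arachidonic acid at 40 uM (final) was turned over for 30 min at room temperature by 150 nM human 12hLO, pH 7.0 Hepes buffer, after 15 min compound preincubation.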
TrxR1 substrate – is turned over as a substrate by rat TrxR1; O89049; purified TrxR1 substrate turnover, NADPH consumption readout; Potency, µM (doses to about 114 µM), for the others: at the top dose activity change, negative = substrate turnover; actives 0.01% (n = 390,000); AID 588456; further: on the % scale 0 is the no-effect control and ±100 the full control effect; nearly all actives have a fitted effect of over 50% in size
Target sequence (O89049 whole entry, looked up): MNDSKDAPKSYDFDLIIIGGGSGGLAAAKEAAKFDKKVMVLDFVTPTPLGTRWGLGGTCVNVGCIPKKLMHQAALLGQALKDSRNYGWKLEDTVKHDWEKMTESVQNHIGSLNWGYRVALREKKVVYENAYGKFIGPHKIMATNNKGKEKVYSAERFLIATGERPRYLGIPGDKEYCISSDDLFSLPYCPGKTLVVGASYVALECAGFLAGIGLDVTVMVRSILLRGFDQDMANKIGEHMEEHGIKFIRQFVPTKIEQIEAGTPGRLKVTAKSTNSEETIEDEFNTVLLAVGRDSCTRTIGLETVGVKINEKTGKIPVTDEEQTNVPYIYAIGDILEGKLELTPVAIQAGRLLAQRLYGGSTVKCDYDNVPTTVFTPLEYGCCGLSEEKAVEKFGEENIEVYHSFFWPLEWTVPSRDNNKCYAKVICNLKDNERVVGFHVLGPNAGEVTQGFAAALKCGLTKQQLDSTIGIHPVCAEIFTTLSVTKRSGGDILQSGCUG
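Rat TrxR1, dispensed at 90 nM, was prereduced with 400 uM NADPH (final) for 5 min at ~22 deg C, then incubated with compound 15 min before 400 uM selenite. A first-read NADPH fluorescence drop versus no-compound background flagged substrates.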
TrxR1 inh – rat TrxR1 inhibition; Potency, µM (top dose mostly 114 µM), for the others: at the top dose activity change, negative = inhibition, most hits filed as inhibitors; O89049; recombinant rTrxR1, NADPH fluorescence consumption, selenite substrate; actives 1% (n = 390,000); further: on the % scale 0 is the no-effect control and ±100 the full control effect; nearly all actives have a fitted effect of over 65% in size
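Rat TrxR1 (90 nM in the dispensed reagent) was pre-reduced with 400 uM NADPH for 5 min at room temperature, then incubated with compound for 15 min. After 400 uM selenite was added, NADPH fluorescence (Ex 340/Em 450 nm) was followed for 8 min.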
IDH1 R132H inh – inhibitors of human mutant IDH1 R132H | Potency, µM (series often up to 76.6 µM), inactives show top-dose activity change, negative = inhibition, actives largely listed as inhibitors | IDH1-R132H enzyme, NADPH consumption, diaphorase/resazurin fluorescence | O75874 | actives 0.093% (n = 390,000) | AID 602179; further: on the % scale 0 is the no-effect control and ±100 the full control effect; nearly all actives have a fitted effect of over 65% in size
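IDH1-R132H (0.5 ug/mL dispensed) in pH 7.5 Tris buffer was preincubated 30 min with compound, then given a substrate mix of 0.016 mM NADPH and 2 mM alpha-KG for 80 min at room temperature; remaining NADPH was read by diaphorase/resazurin fluorescence.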
RGS4 inhibitor – human RGS4 inhibition | Transcreener GDP fluorescence polarization, RGS4-accelerated GTP hydrolysis | Potency, µM (highest dose often 114 µM), without a hit: at the top dose activity change, negative = inhibition, hits mostly inhibitors | actives 0.039% (n = 390,000); further: on the % scale 0 is the no-effect control and ±100 the full control effect; nearly all actives have a fitted effect of over 75% in size; some results filed as inactive show a strong effect at the top dose
Target sequence (P49798 whole entry, looked up): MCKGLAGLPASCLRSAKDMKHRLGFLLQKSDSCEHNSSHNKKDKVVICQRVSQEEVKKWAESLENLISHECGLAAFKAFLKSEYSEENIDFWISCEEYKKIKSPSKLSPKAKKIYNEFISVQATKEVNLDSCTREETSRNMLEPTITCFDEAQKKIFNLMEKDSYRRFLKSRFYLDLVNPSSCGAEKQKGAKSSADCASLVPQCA
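MLSMR compounds (23 nl, pin-transferred) preincubated 10 min at room temperature with a 500nM (2x) first reagent, then RGS4 at 900nM (2x) plus Transcreener GDP mix added; fluorescence polarization (620/688 nm) read before and after 90 min at 30 °C.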
Vif-A3G inh – Vif-A3G binding inhibition; Potency, µM (series often up to 46.1 µM), for the others: at the top dose activity, negative = active, actives largely listed as inhibitors; actives 0.076% (n = 410,000); Q9HC16; HeLa A3G-eYFP + Vif (tagged APOBEC3G with the HIV-1 protein that degrades it), YFP fluorescence, overnight;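 further: on the % scale 0 is the no-effect control and ±100 the full control effect; nearly all actives have a fitted effect of over 60% in size; hits raise eYFP signal because A3G escapes Vif-driven loss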
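Read-out is eYFP fluorescence (Ex 488/Em 500-530) from Vif-expressing HeLa A3G-eYFP cells; more signal means A3G escaped Vif-mediated degradation. Cells plated overnight, compound pinned in, incubated overnight at 37 deg C.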
USP1-UAF1 inh – blocks the human USP1/UAF1 deubiquitinase complex; recombinant USP1/UAF1, Ub-Rhodamine cleavage fluorescence; actives 0.23% (n = 390,000); AID 743255; Potency, µM (doses to about 57.1 µM), without a hit: top-dose activity change, negative = inhibition, hits mostly inhibitors; further: on the % scale 0 is the no-effect control and ±100 the full control effect; nearly all actives have a fitted effect of over 60% in size; inactives centre near -12
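Step one: compound is pinned into 1nM USP1/UAF1 in HEPES pH 7.8 buffer with TCEP. Step two: 15 min room-temperature incubation. Step three: Ub-Rho (150nM final) starts cleavage, tracked by fluorescence over six one-minute reads.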
Vif-APOBEC3F blk – inhibitors of Vif-A3F interaction. Potency, µM (titrated, usually from 46.1 µM), for the others: top-dose activity, negative = active. HeLa A3F-eYFP + Vif (tagged APOBEC3F with the HIV-1 protein that degrades it), YFP fluorescence increase. actives 0.2% (n = 390,000); further: % of control where 0% means no effect; nearly all actives have a fitted effect of over 65% in size
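HeLa cells stably expressing A3F-eYFP plus Vif, plated and incubated overnight at 37 deg C, then exposed to compounds overnight at 37 deg C. Blocked degradation read as raised yellow fluorescence (Ex 488/Em 500-530).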
Starred values were filed as active, the others as inactive; ? = inconclusive; & = joins results of further samples; [ ] = another dose, or the depositor's remark. The call rests on the fitted dose curve; in most records, active means well fitted curve in the direction sought with a large enough effect; inconclusive means small, poorly fitted or top-dose-only effect, or another doubt; inactive means no such curve, though single readings can be large; an effect the other way counts as inactive or inconclusive. Potency means the concentration at half of the fitted maximal effect. An excerpt, so the mix of outcomes need not match the whole.

SMILES	RGS4 inhibitor	IDH1 R132H inh	USP1-UAF1 inh	TrxR1 inh	12-LOX inh	TrxR1 substrate	Vif-APOBEC3F blk	Vif-A3G inh
COc1cccc(C2C(C(=O)c3cc4ccccc4o3)=C(O)C(=O)N2c2cc(C)on2)c1 (centres undefined)	-23.2%	-6.6%	-15.9%	-21.7%	?	-7.4%	-0.7%	-3.2%
COC(=O)c1sc(NC(=O)/C=C/c2ccc(OC)c(OC)c2)c(C(=O)OC)c1C	15.9%	-2.7%	-18.8%	9.4%	-26.1%	6.8%	-21.2%	2.3%
O=C(O)c1cc2ccccc2c2cc(Br)ccc12	13.9%	-1.7%	?	9.7%[2.29 µM]	36.2%	5.0%[57.1 µM]	-1.6%	0.8%
Cn1cnnc1SCC(=O)Nc1cc(S(=O)(=O)N2CCCCCC2)ccc1Cl	-0.1%	5.9%	-16.1%	-5.7%	-12.2%	-3.6%	2.1%	-2.9%
CCc1cc(C(=O)c2ccc(OC)cc2)c(NC(=O)CCC(=O)O)s1	10.0%	-0.8%	-0.2%	6.4%[57.1 µM]	0.0%	17.2%[57.1 µM]	-4.7%	0.0%
Cc1cc(N2C(=O)C(O)=C(C(=O)c3cc4ccccc4o3)C2c2ccc(Cl)cc2)no1 (centres undefined)	-46.3%	-1.3%	?	?	39.8µM*	-3.6%	-29.5%	-13.2%
Cc1cc(C)c(NC(=O)CSc2ncc3c(n2)-c2cc(Cl)ccc2N(C)S3(=O)=O)c(C)c1	-9.9%	-12.4%	6.0%	19.2%[57.1 µM]	?	14.5%[57.1 µM]	-1.6%	-48.5%
O=c1c2oc3ccccc3c2n(Cc2cccc(Cl)c2)c(=O)n1Cc1ccco1	-15.7%	-17.5%	-1.8%	14.4%	-21.8%	7.5%	-8.2%	-0.8%
CCOc1ccc(NC(=O)CSc2ccc(-c3sc(-c4ccccc4)nc3C)nn2)cc1	3.9%	7.9%	-4.9%	9.9%	?	7.6%	-3.9%	-3.1%
Cc1cc(C)cc(-n2ccnc(NCc3ccc(F)cc3)c2=O)c1	24.6%	-5.4%	-22.9%	15.4%[57.1 µM]	-12.7%	7.1%[57.1 µM]	0.4%	-2.8%
CCc1nnc(NC(=O)CSc2ccc(-c3ccc(-n4cccn4)cc3)nn2)s1	-11.6%	5.4%	1.8%	-15.0%	-12.8%	-15.6%	6.1%	2.2%
CCOC(=O)C1CCN(C(=O)c2cc3c(=O)n4ccccc4nc3n2C)CC1	21.7%	15.3%	-11.6%	-0.2%[57.1 µM]	-11.3%	146.8%[activator][57.1 µM]	-6.0%	-0.3%

The closing 2 compounds of the part before come first, to join the parts.
SMILES	RGS4 inhibitor	IDH1 R132H inh	USP1-UAF1 inh	TrxR1 inh	12-LOX inh	TrxR1 substrate	Vif-APOBEC3F blk	Vif-A3G inh
CCc1nnc(NC(=O)CSc2ccc(-c3ccc(-n4cccn4)cc3)nn2)s1	-11.6%	5.4%	1.8%	-15.0%	-12.8%	-15.6%	6.1%	2.2%
CCOC(=O)C1CCN(C(=O)c2cc3c(=O)n4ccccc4nc3n2C)CC1	21.7%	15.3%	-11.6%	-0.2%[57.1 µM]	-11.3%	146.8%[activator][57.1 µM]	-6.0%	-0.3%
Cc1ccc(C2C(C(=O)c3cc4ccccc4o3)=C(O)C(=O)N2CCN2CCOCC2)cc1 (centres undefined)	-40.6%	-6.2%	-12.5%	44.7µM*	?	-6.4%	-12.2%	-4.3%
O=C(CSc1ncnc2sc3c(c12)CCCC3)N1CCC(c2noc3ccc(F)cc23)CC1	-4.8%	0.4%	-9.0%	?	18.4%	1.5%	-2.2%	0.1%
Cc1ccc(-n2c3c(c(=O)[nH]c2=O)C(NS(=O)(=O)c2ccc(C)cc2)(C(F)(F)F)C(=O)N3)cc1 (centres undefined)	21.1%&-0.4%	-6.7%&8.3%	-21.4%&-19.9%	36.1%	?	9.6%	-0.7%&-8.7%	0.2%&0.2%
COc1ccc(-n2ccnc(NCCc3ccc(S(N)(=O)=O)cc3)c2=O)cc1	25.3%	-0.3%	-6.1%	-3.5%[57.1 µM]	-25.4%	-0.8%[57.1 µM]	2.8%	1.5%
CCOc1ccc2ncc3c(-c4ccc(C)cc4)nn(-c4cccc(F)c4)c3c2c1	-12.8%	-7.2%	-12.3%	4.5%	-24.0%	1.4%	-2.0%	-1.1%
CN(CC(=O)Nc1ccc(Cl)cc1F)S(=O)(=O)c1ccc2c(c1)n(C)c(=O)c(=O)n2C	22.2%	-15.2%	-11.9%	-4.1%	0.3%	-2.2%	3.6%	2.0%
CCCc1nc(SCC(=O)NNC(=O)c2ccc(OC)cc2)c2ccccc2n1	-26.2%	-1.1%	-14.9%	8.0%	-0.5%	-7.5%	-2.8%	-1.7%
CSc1nc(Nc2cccc(C)c2)c(C#N)c(-c2ccccc2)n1	1.8%	-11.5%	-23.3%	1.6%	24.4%&-15.6%	88.1%[activator]	-11.9%	0.6%
COc1ccc(-c2nnc3ccc(SCc4ccccc4)nn23)cc1	-13.2%	12.6%	-4.4%	11.8%	-5.0%	10.3%	-29.8%	-0.9%
O=c1c2cc(N3CCOCC3)ccc2[nH]c(=S)n1CCCN1CCCCCC1	11.5%	2.7%	-14.0%	-28.7%	-60.0%	5.7%	-9.2%	1.7%
COc1ccc(OC)c(NC(=O)CSc2nc(N)c(-c3ccccc3)c(=O)[nH]2)c1	6.5%	-2.0%	4.8%	5.4%	425.2%[activator]	-3.6%[57.1 µM]	-4.3%	3.2%
COc1ccc(CCNC(=O)c2ccc(Cn3c(=O)c4cccn4c4cccnc43)cc2)cc1OC	?	2.9%	2.9%	39.6%[activator]	-17.8%	21.8%	1.0%	-0.8%
Cn1nnnc1SCCCNCc1ccc(-c2ccc(Br)cc2)o1	5.4%	-18.3%	4.5%	?	-20.4%	-13.8%	-25.9%	3.3%
Cc1ccccc1-c1noc(-c2cc3ccccc3oc2=O)n1	18.6%	-2.2%	-12.4%	20.1%	-5.6%	8.0%	?	-3.7%
CSc1ccc(-c2nc(CN(C)C3CCOC3)c(C)o2)cc1 (centres undefined)	5.3%	-16.8%	-10.6%	7.7%	0.8%	-1.8%	-1.0%	0.3%
O=C1Nc2c(c(=O)[nH]c(=O)n2-c2ccccc2)C1(Nc1ncccn1)C(F)(F)F (centres undefined)	-4.8%	3.3%	-17.8%	6.3%[57.1 µM]	-2.9%	-8.7%[57.1 µM]	4.3%	-1.3%
CCOc1ccccc1-c1n[nH]c(=S)o1	-26.2%	0.9%	-6.6%	-14.1%	?	18.7%	-10.2%	-0.3%
CCOC(=O)c1c(NC(=O)c2ccccc2OCC)sc2c1CCC(CC)C2 (centres undefined)	14.1%	-5.2%	-15.3%	136.9%[activator]	-3.9%	122.5%[activator]	-9.3%	-2.9%
Cc1ccc(Nc2ncccc2C(=O)O)cc1C	5.4%	-12.5%	-13.5%	24.9%	-4.9%	2.2%	3.5%	-3.3%
CCCCNC(=O)CSc1nc2ccccc2nc1Cc1ccc(Cl)cc1	-5.3%	9.7%	-11.1%	-6.0%[57.1 µM]	-11.4%	-7.3%[57.1 µM]	3.5%	2.6%
Nc1ccc2c(c1)C(=O)N(CCCC(=O)O)C2=O	2.7%	5.4%	-23.4%	7.5%[57.1 µM]	0.0%	14.5%[57.1 µM]	-4.5%	1.1%
COc1ccc(CNC(=O)c2cc(-c3ccc(Br)s3)nc3ccccc23)cc1	-4.7%	-7.5%	-1.0%	3.5%	-12.8%	24.6%	0.4%	4.3%
COc1ccc(-n2ccnc(NCc3cccs3)c2=O)cc1	0.5%	1.9%	-2.1%	2.2%[57.1 µM]	?	-0.1%[57.1 µM]	-1.4%	0.5%
CC(=O)c1ccc(NC(=O)c2cc3c([nH]c2=O)CC(c2ccccc2)CC3=O)cc1 (centres undefined)	16.0%	-20.3%	-5.8%	30.1%	-10.6%	2.5%	?	0.8%
CC(=O)c1ccc(NC(=O)c2nc3ccccc3n(C)c2=O)cc1	-4.6%	-2.2%	-8.2%	14.0%[57.1 µM]	2.4%&3.1%	3.6%[57.1 µM]	-4.5%	8.1%
COc1ccc2c(c1)c1c(c(=O)n(-c3cc(Cl)ccc3C)c(=O)n1Cc1ccc(F)cc1)n2C	32.4%	2.2%	-2.0%	25.3%	?	17.7%	-0.8%	2.9%
O=C1C2CCCN2C(c2cccs2)N1c1ccc(Cl)cc1 (centres undefined)	25.0%	1.9%	-4.0%	-14.0%	-25.5%	-7.3%	-9.1%	-21.0%
O=C(CCn1c(=O)c2ccccc2n(Cc2cccc(Cl)c2)c1=O)NCCc1ccccc1	-27.0%	-0.2%	-14.5%	13.3%	-18.4%	3.4%	0.4%	0.8%

Retrieved by compound from above:
SMILES	RGS4 inhibitor	IDH1 R132H inh	USP1-UAF1 inh	TrxR1 inh	12-LOX inh	TrxR1 substrate	Vif-APOBEC3F blk	Vif-A3G inh
O=C1C2CCCN2C(c2cccs2)N1c1ccc(Cl)cc1 (centres undefined)	25.0%	1.9%	-4.0%	-14.0%	-25.5%	-7.3%	-9.1%	-21.0%
COc1ccc2c(c1)c1c(c(=O)n(-c3cc(Cl)ccc3C)c(=O)n1Cc1ccc(F)cc1)n2C	32.4%	2.2%	-2.0%	25.3%	?	17.7%	-0.8%	2.9%
O=C(CCn1c(=O)c2ccccc2n(Cc2cccc(Cl)c2)c1=O)NCCc1ccccc1	-27.0%	-0.2%	-14.5%	13.3%	-18.4%	3.4%	0.4%	0.8%
